Assay outcomes from PubChem.
PABP FP inh = PABP poly(A) RNA binding inhibitors, primary screen, biochemical, fluorescence polarization, uHTS | Polyadenylate-binding protein 1 (Homo sapiens), P11940 | inhibition, % at 35 µM | 1% of 290,000 active;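 active = 50% or more with normal probe brightness, or confirmed in later tests; about a fifth of its hits are not listed in these tables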;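 also: calls also rest on retests at 20 µM and on dose response follow-up; controls were probe without protein and protein plus probe with vehicle; some compounds called inactive have numbers as strong as hits; many hits fall short of the cut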
eIF4H inh = human eIF4H binding inhibitors, primary screen, translation initiation inhibitor project, biochemical, uHTS, fluorescence polarization | inhibition, % at 35 µM | Eukaryotic translation initiation factor 4H (Homo sapiens), Q15056 | 0.94% of 290,000 active | eIF4H fluorescence polarization binding assay | AID 2012, 2009;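 active = 50% or more with normal probe brightness, or confirmed in later tests; about a fifth of its hits are not listed in these tables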;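 also: calls also rest on retests at 20 µM and on dose response follow-up; 0% = protein and probe with vehicle and 100% = probe without protein; strong numbers were not always called active; many hits fall short of the cut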
CSC inhib = cancer stem cell viability inhibitors, primary screen, luminescence; 1.1% of 300,000 active; AID 2717, 2010; inhibition, % at 7.5 µM; cancer stem cell-like cells viability;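 active = mean at 75% or more and at least half the replicates too; tested in HMLE shEcad cells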;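 also: 0% = median of negative and 100% = median of positive control wells; the first replicate is given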
UUG fidelity = modulators of yeast start codon fidelity, primary screen, whole organism, S. cerevisiae, single point, plate reader; S. cerevisiae UUG-firefly luciferase reporter, luminescence/redox ratio; activity score, % at 18.7 µM; 0.13% of 350,000 active; AID 602363, 2012;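 active = replicate mean at a twofold rise or more, about +100% in these data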;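 also: firefly luciferase made from a UUG start codon reports start codon fidelity; reporter light over untreated wells divided by growth signal over untreated wells; some hits fall short of that in this replicate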
Rce1 inh = yeast Rce1p protease inhibitors, primary screen, biochemical, fluorescence, cell-free homogeneous; CAAX prenyl protease 2 (Saccharomyces cerevisiae (strain ATCC 204508 / S288c)), Q03530; yeast membranes, quenched prenylated peptide cleavage fluorescence; calls only; 0.27% of 290,000 active;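 active = fall in fluorescence gain of 50% or more versus controls, with final raw signal at or below 3038400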;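 also: plate controls were neutral control wells for no effect and wells lacking membranes for full effect; tested at 10 µM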
Target sequence (Q03530 whole entry, looked up): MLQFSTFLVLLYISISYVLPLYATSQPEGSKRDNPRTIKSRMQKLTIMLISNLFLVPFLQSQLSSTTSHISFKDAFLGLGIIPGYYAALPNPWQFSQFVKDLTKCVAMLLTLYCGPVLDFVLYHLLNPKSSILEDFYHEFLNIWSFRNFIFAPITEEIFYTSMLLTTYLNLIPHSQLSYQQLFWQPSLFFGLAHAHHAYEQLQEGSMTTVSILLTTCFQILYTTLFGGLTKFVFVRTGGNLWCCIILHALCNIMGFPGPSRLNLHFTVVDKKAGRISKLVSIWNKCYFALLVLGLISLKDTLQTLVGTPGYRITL
Env fusion inh = inhibitors of HIV-1 Env-driven cell-cell fusion, primary screen, HeLa-JRFL effector, CEM21 target cells, luciferase; inhibition, % at 12.3 µM; 1.1% of 360,000 active;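 active = mean replicate inhibition score of at least 50 and every replicate individually at or above 50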;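 also: 0% = plate neutral controls and 100% = maraviroc near 300 nM; one replicate is shown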
MT1-MMP act inh = blockers of MT1-MMP proenzyme processing, primary screen, HT1080 RFP-PRO-GFP cells, GFP/RFP fluorescence. Matrix metalloproteinase-14 (Homo sapiens), P50281. GFP/RFP ratio fluorescence, overnight; percent of plate control window, DMSO zero. GFP/RFP ratio change, % at 20 µM. 0.061% of 360,000 active;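 active = GFP/RFP ratio change of at least 30% with cell ATP level not reduced by more than half and red fluorescence within 50% of control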; also: strong numbers were not always called active
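Material: RFP-PRO-GFP reporter HT1080 cells. Dosing: single-point 20 µM compound, 1% DMSO. Controls: DMSO and RFP-L50D-GFP cell wells. Timing: cells overnight before dosing, compound overnight, 37 °C, 5% CO2. Measure: GFP/RFP fluorescence ratio.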
eIF4H inh retest = second read-out of eIF4H inh, no call of its own (marks repeat the call); inhibition, %; compound at 20 µM; confirmation average;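 mean of two retest wells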
PABP FP inh retest = recorded beside PABP FP inh, whose call it bears; inhibition, %; compound at 20 µM; confirmation repeats;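 mean of two retest wells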
MT1-MMP act inh RFP = second read-out of MT1-MMP act inh, no call of its own (marks repeat the call); RFP signal change, %; measured here: RFP expression control read;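 0 = vehicle wells; hits needed this value within 50% of zero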
The depositor's hits bear a star; i = inactive; x = not tested or not shown.

SMILES	PABP FP inh	eIF4H inh	CSC inhib	UUG fidelity	Rce1 inh	Env fusion inh	MT1-MMP act inh	MT1-MMP act inh RFP	others
O=C(Nc1ccnn1C1CCN(Cc2ccccc2F)CC1)C1CCCC1	0	4	8	-13	i	-181	0	1
O=C(N/N=C1\CCc2ccccc21)c1ccc(O)cc1	2	4	12	-36	i	-40	1	3
CCc1ccccc1Nc1nc(N)nc(COC(=O)C2CCN(C(=O)c3ccc(F)cc3)CC2)n1	x	x	x	16	x	-6	3	-3
O=C(NCc1ccccc1)c1ccc(NC(=O)C2CCCC2)cc1	x	x	x	-18	x	-15	7	4
Cc1ccc(N2C(=O)N(CC(=O)N3CCCc4ccccc43)C(=O)C2C)cc1 (stereo unspecified)	10	6	-8	-15	i	x	5	2
O=C(c1cccs1)N1CCCC(N2CCN(c3ccc(F)cc3)CC2)C1 (stereo unspecified)	-5	-12	0	3	i	3	3	1
Cn1c(Cl)c(/C=N/OC(=O)C(C)(C)C)c2ccccc21	-15	-1	11	x	i	0	-2	-2
CCOc1ccc(NC(=O)Nc2nc3ccc(S(C)(=O)=O)cc3s2)cc1	4	2	3	-15	i	20	3	3
CCC(=O)n1nc(-c2ccco2)nc1SCc1ccccc1	33	34	19	-3	i	-43	-6	-1
NC(=O)CN1C(=O)C(=O)N(Cc2cccc(C(F)(F)F)c2)C1=O	27	-6	-7	-6	i	-7	2	3
CC(NC(=O)NCCCn1ccnc1)(C(F)(F)F)C(F)(F)F	10	-8	-7	-2	i	-1	-1	-4
CC(C)(C)n1nnnc1CN1CCN(C2CCCC2)CC1	-1	-3	-9	-22	i	x	1	4
Cc1ccc(C(=O)Nc2cc(=O)n(C)c(=O)n2C)cc1C	5	-10	x	-19	i	3	3	-2
Cn1c(C(=O)N2CCN(Cc3ccc4c(c3)OCO4)CC2)cc2c(=O)n(C)c3ccccc3c21	2	-4	-11	-9	i	-10	6	1
CN(Cc1nc(Cc2cccc(F)c2)no1)CC1COCCO1 (stereo unspecified)	3	-3	6	x	i	6	2	4
CNC(=O)/C(C#N)=C/c1cn(CC(=O)NCc2ccco2)c2ccccc12	-3	-8	6	-2	i	4	3	-1
COc1ccc(C2CC(c3ccccc3)=NN2C(=O)COC(=O)c2ccc(Cl)nc2)cc1 (stereo unspecified)	10	1	-5	x	i	-28	-3	-1
CCC1(CC)NC(=O)NC1=O	4	-8	-14	-4	i	x	4	12
COC(=O)[C@H](C)NC(=O)Nc1ccc(OC)cc1OC	-2	0	-6	0	i	x	2	8
CN1CCN(C(=O)CC23CC4CC(CC(C4)C2)C3)CC1	-6	5	9	-21	i	x	2	7
Cc1cccc(Cn2cnc3c(nnn3Cc3ccc(F)cc3)c2=O)c1	-5	-6	x	-6	i	-2	4	5
COC(=O)c1cc(NC(=O)c2ccc([N+](=O)[O-])cc2)c(=O)oc1C	-7	-4	-5	-20	i	-4	0	2
CCOC(=O)c1[nH]c(C)c(C(=O)NC(C)CC)c1C (stereo unspecified)	-2	0	8	-1	i	-4	-2	4
Cc1ccc(C)c(COc2coc(CN3CCN(C(=O)c4ccco4)CC3)cc2=O)c1	x	x	-5	-3	i	x	-2	-4
COc1ccc(S(=O)(=O)N2c3ccccc3OCC2c2ccccc2)cc1 (stereo unspecified)	-7	-6	43	-6	i	28	0	-19

Random excerpt: five entries already listed, in no set order.
SMILES	PABP FP inh	eIF4H inh	CSC inhib	UUG fidelity	Rce1 inh	Env fusion inh	MT1-MMP act inh	MT1-MMP act inh RFP	others
Cc1ccc(C)c(COc2coc(CN3CCN(C(=O)c4ccco4)CC3)cc2=O)c1	x	x	-5	-3	i	x	-2	-4
CNC(=O)/C(C#N)=C/c1cn(CC(=O)NCc2ccco2)c2ccccc12	-3	-8	6	-2	i	4	3	-1
CN(Cc1nc(Cc2cccc(F)c2)no1)CC1COCCO1 (stereo unspecified)	3	-3	6	x	i	6	2	4
COC(=O)c1cc(NC(=O)c2ccc([N+](=O)[O-])cc2)c(=O)oc1C	-7	-4	-5	-20	i	-4	0	2
COC(=O)[C@H](C)NC(=O)Nc1ccc(OC)cc1OC	-2	0	-6	0	i	x	2	8

The main list resumes; the 2 compounds before the break are reprinted first.
SMILES	PABP FP inh	eIF4H inh	CSC inhib	UUG fidelity	Rce1 inh	Env fusion inh	MT1-MMP act inh	MT1-MMP act inh RFP	others
Cc1ccc(C)c(COc2coc(CN3CCN(C(=O)c4ccco4)CC3)cc2=O)c1	x	x	-5	-3	i	x	-2	-4
COc1ccc(S(=O)(=O)N2c3ccccc3OCC2c2ccccc2)cc1 (stereo unspecified)	-7	-6	43	-6	i	28	0	-19
CCOC(=O)Cn1cnc2c(nnn2Cc2ccc(Cl)cc2)c1=O	-3	2	-2	-8	i	14	-2	0
CC1(c2ccc3ccccc3c2)NC(=O)N(CC(=O)N2CCN(c3ccccc3O)CC2)C1=O (stereo unspecified)	-4	-7	x	-12	i	15	3	-5
COc1cccc(/C=N/NC(=S)Nc2cccc(C(=O)O)c2)c1O	-8	13	35	x	i	19	-35	6
CCOC(=O)c1c(C)[nH]c(C(=O)COC(=O)C(C)Oc2ccc(Cl)cc2Cl)c1C (stereo unspecified)	4	2	-6	-8	i	x	3	1
CCc1cc(=O)oc2cc(OC(C)C(=O)NCC3CCC(C(=O)O)CC3)c(Cl)cc12 (stereo unspecified)	-1	-6	-14	6	i	x	1	0
Nc1ccc(/C=C/C(=O)c2ccco2)cc1	5.4*	54*	7	x	i	2	-16	-1	eIF4H inh retest=88*;PABP FP inh retest=62*
CC(C)N1CCC(C)(C(=O)Nc2cc(-c3ccccc3)nn2C)C1 (stereo unspecified)	x	x	x	-16	x	3	2	6
CCN(CC)CCNC(=O)c1ccc(Cl)c(S(=O)(=O)Nc2ccccc2OC)c1	-3	-9	41	2	i	x	2	5
O=C1CCCc2c1cc(C(=O)NCCCN1CCOCC1)c(=O)n2-c1ccc(Cl)cc1	-11	-6	-4	-12	i	-3	1	5
O=S(=O)(c1ccc(NCc2ccc(F)cc2)nc1)N1CCCC1	-4	19	x	-6	i	13	-1	5
Cc1nc(C)c(C(=O)N(c2ccccc2F)C(C(=O)NCC2CCCO2)c2ccccc2)s1 (stereo unspecified)	3	16	x	-1	i	3	-1	1
CCCOC(=O)CSC1=C(C#N)C(c2ccccc2OCC)C(C#N)C(=O)N1 (stereo unspecified)	4	-8	10	-18	i	x	-4	-1
CN(Cc1ccccc1)C(=O)COC(=O)c1cc(NS(=O)(=O)c2cccs2)ccc1O	7	10	6	x	i	11	-1	-18
Cc1c(Cl)cccc1NC(=O)CNc1cccc(S(=O)(=O)N(C)C)c1	4	45	5	0	i	-5	-4	-7
CCN(CC)CCNC(=O)c1ccc(NC(=O)Cc2ccc(OC)c(S(=O)(=O)N3CCOCC3)c2)cc1	x	x	x	-8	x	11	2	-2
Cn1c(SCC(=O)Nc2ccccc2C(F)(F)F)nc2c(c1=O)SCC2	8	6	-14	-6	i	10	-3	-22
COc1ccc(CNC(=O)C(=O)NCC2OCCN2S(=O)(=O)c2cccs2)cc1 (stereo unspecified)	2	7	-7	-8	i	14	3	3
NC(=S)NCc1cccnc1	1	-2	-5	-19	i	0	3	5
C/C(=C\c1ccccc1F)C(=O)c1c(C)cc(C)[nH]c1=O	0	0	-1	-9	i	2	2	-1
CCOC(=O)C(Cc1c[nH]c2ccccc12)NC(=O)c1ccccc1Br (stereo unspecified)	12	-4	-11	-15	i	-20	-3	2
Cc1cnc(NC(=O)c2ccc3c(c2)OCCO3)s1	x	x	x	-77	x	52	4	-5
CCOC(=O)C1CCCN(c2c(NCCc3ccccc3)c(=O)c2=O)C1 (stereo unspecified)	-1	-10	-10	-13	i	9	3	7
Cn1c(=O)c2c(ncn2CC(O)CNc2ccc(F)cc2)n(C)c1=O (stereo unspecified)	4	-1	3	x	x	7	6	-4
O=C(CSc1ncc(-c2ccccc2)nn1)NCc1ccco1	16	-8	-1	-18	i	x	1	-1
Cc1cccc2sc(NNC(=O)C3COc4ccccc4O3)nc12 (stereo unspecified)	-1	8	18	-4	i	15	3	7
SMILES	PABP FP inh	eIF4H inh	CSC inhib	UUG fidelity	Rce1 inh	Env fusion inh	MT1-MMP act inh	MT1-MMP act inh RFP	others
Cc1cc(C)cc(OCCn2ccnc2)c1	2	-9	-7	-12	i	-55	-1	-1
Cc1ccc(OCC(=O)Nc2ccc(N(C)C)cc2)cc1	-5	-6	7	2	i	x	-1	2
COC(=O)c1[nH]c2cccc(C)c2c1NC(=O)CN1CCN(C(=O)c2ccco2)CC1	0	3	x	-15	i	x	0	-1
CCOC(=O)Cn1cnc2c(nnn2-c2ccccc2)c1=O	-3	-1	-5	-14	i	x	-1	1
CCN(CC)Cc1c(C(=O)N/N=C/c2ccccn2)nnn1-c1nonc1N	2	19	x	-1	i	10	-3	1
CCCc1c(C(=O)N/N=C(/C)c2ccncc2)nnn1-c1nonc1N	-2	4	-20	-15	i	1	4	4
O=C(C1CC(=O)N(c2ccc(Cl)cc2)C1)N1CCCCCC1 (stereo unspecified)	-12	-1	-8	2	i	1	0	2
COc1cc(OC)cc(-c2nnc(NC(=O)CCS(=O)(=O)c3ccc(C)cc3)o2)c1	x	x	x	-9	i	4	0	3
COc1ccc(/C=C/C(=O)NCCc2ccc(S(N)(=O)=O)cc2)cc1	0	4	-10	-1	i	4	0	4
COC(=O)c1ccc(C23CC4(C2)[C@H](CN(C)[C@@H]4c2ccccc2)C3c2ccc(C(F)(F)F)cc2)cc1 (stereo partly specified)	-2	-10	-10	-1	i	-6	0	-1
CCOC(=O)N1CCN(C(=O)CC(C)S(=O)(=O)c2cc3c(cc2C)NC(=O)CO3)CC1 (stereo unspecified)	0	5	-8	-8	i	0	1	-4
COc1ccc(-n2c(SCC(=O)NNC(=O)c3ccc(C)cc3)nnc2-c2ccncc2)cc1	-14	-3	-12	-19	i	x	-3	1
O=C(Nc1ccc(N2CCOCC2)nc1)c1ccc(C(F)(F)F)cc1	-7	58	-2	x	i	26	-4	-27	eIF4H inh retest=-1;PABP FP inh retest=13
O=C(Oc1ccc(-c2nnco2)cc1)c1ccco1	x	x	4	-26	i	-6	6	7
Brc1ccc(CSc2nnc(-c3cnccn3)n2Cc2ccco2)cc1	11	0	24	1	i	x	-4	-8
N#Cc1c(C(F)(F)F)cc(-c2ccccc2)nc1SCC(=O)N1CCOCC1	24	10	-16	-22	i	23	-4	-3
CCC(=O)Nc1sccc1C(=O)OC	1	0	x	x	i	x	-6	0
Nc1nc(NCC2CCCO2)nc(NCC2CCCO2)c1[N+](=O)[O-] (stereo unspecified)	-9	5	x	x	i	23	-6	-3
CC(Oc1ccc(-c2ccccc2)cc1)C(=O)N1CCOCC1 (stereo unspecified)	1	11	-3	-3	i	x	6	-3
Cc1cccc(C)c1NC(=O)CN(C)CC(=O)Nc1ccc(F)c(Cl)c1	5	1	-3	x	i	0	0	-3
Cn1cccc1-c1nc2ccccc2n1C	-5	-14	-22	x	i	-2	5	0
ONc1cccnc1-n1nc(C(F)(F)F)cc1C(F)(F)F	25	64*	3	x	i	x	x	x	eIF4H inh retest=94*;PABP FP inh retest=22
CCN(C(=O)CSc1nc(-c2ccccc2)c(-c2ccccc2)[nH]1)C1CCS(=O)(=O)C1 (stereo unspecified)	0	1	-5	-21	i	x	-7	-4
CCc1ccc(NC(=O)CN(c2cccc(C)c2)S(C)(=O)=O)cc1	4	5	-6	-12	i	x	0	3
